Compound activity deposited in PubChem BioAssay by National Center for Advancing Translational Sciences (NCATS).
A647 fluor: compound autofluorescence in A647 spectral region; Compound fluorescence, A647 channel (570/671 nm), Tris buffer; max dye-equivalent concentration, M; 59,000 tested, under 10 active; active means above 1 µM dye equivalent; inconclusive means 0.1 to 1 µM; inactive means 0.1 µM or less;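 note: values scaled relative to a standard on each plate; highest value over a series up to 38 µM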
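Tris 100 mM pH 8.0; cpd + A647 stds pin-transferred; 15 min RT; CCD imager, ex 570/em 671. Output = A647-equivalent conc. per cpd conc.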
AID923: qHTS Assay for Allosteric/Competitive Inhibitors of Caspase-1: Spectroscopic Profiling in AFC Spectral Region | compound fluorescence, AFC spectral region (405/520 nm); almost no hit is shown here | Potency, µM (highest dose often 57.5 µM), inactives show at the top dose fluorescence increase, actives largely listed as activators | 1.1% of 75,000 active | AID 923, 2007; active = well fitted activation curve with a large enough effect; inconclusive = small, poorly fitted or top-dose-only effect;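 note: potency is the fitted concentration of half-maximal effect; 0% is about no effect; scaled to a free AFC standard on each plate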
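Titrations up to 57 uM read every 20 sec for 3 min (405/520 nm) with 50 nM caspase 1 and 5 uM Ac-WEHD-AFC, pH 7.5 HEPES buffer. Fluorescence-vs-time intercept gave baseline, scaled against on-plate AFC standard.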
Resorufin fluor: resorufin region autofluorescence | Compound fluorescence, resorufin region 547/598 nm, buffer; active compounds read high | max dye-equivalent concentration, M | 0.04% of 59,000 active; active = above 10 nM dye equivalent; inconclusive = 1 to 10 nM; inactive = 1 nM or less; a few of its hits are not listed in these tables; note: highest value over a series up to 38 µM
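Compounds in 100 mM Tris, pH 8.0, incubated 15 min at room temperature, then fluorescence read at 547 nm excitation/598 nm emission. Signal converted to dye-equivalent concentration via an on-plate six-point resorufin standard curve, per compound concentration.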
TSHR ag: activates the human thyroid stimulating hormone receptor; P16473; HEK293-CNG-TSHR cells (CNG channel as cAMP sensor), membrane potential dye, cAMP; Potency, µM (highest dose often 57.1 µM), for the others: top-dose activation, actives largely listed as activators; 0.48% of 73,000 active; active = well fitted activation curve of enough size with the parental cells flat; inconclusive = any curve in the parental cells; inactive = parental cells flat and receptor cells flat or falling; note: potency is the fitted concentration of half-maximal effect; % of control where 0% means no effect; weak receptor curves with flat parental cells got no call and are not listed
Target sequence (P16473 whole entry, looked up): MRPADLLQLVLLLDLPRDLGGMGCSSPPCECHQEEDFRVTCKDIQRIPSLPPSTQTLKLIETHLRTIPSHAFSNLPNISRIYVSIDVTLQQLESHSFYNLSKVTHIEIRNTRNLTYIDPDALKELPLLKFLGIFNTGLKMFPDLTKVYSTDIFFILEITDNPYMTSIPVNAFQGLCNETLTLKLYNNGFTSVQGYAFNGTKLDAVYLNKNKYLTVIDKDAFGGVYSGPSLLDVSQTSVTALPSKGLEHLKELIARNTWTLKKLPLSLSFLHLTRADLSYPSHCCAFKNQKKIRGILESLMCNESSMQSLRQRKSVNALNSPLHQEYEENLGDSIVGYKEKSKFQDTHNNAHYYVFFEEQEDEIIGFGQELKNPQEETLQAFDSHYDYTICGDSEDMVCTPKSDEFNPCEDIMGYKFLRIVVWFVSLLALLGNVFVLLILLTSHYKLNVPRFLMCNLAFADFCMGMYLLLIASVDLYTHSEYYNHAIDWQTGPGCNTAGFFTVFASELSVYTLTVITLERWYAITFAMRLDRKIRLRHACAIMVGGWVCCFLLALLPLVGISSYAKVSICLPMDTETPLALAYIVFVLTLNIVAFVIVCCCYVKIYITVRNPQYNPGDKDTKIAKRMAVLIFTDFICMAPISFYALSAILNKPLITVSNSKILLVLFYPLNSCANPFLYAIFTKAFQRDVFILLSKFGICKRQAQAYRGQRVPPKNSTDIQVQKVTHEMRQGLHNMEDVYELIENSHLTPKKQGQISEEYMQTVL
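HEK 293 cells stably expressing TSHR and a cAMP-gated CNG channel; parental CNG-only cells as counterscreen. Cells preloaded 60 min with membrane potential dye plus 100 uM RO 20-1724, then compound 30 min; fluorescence read at 590 nm.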
A488 autofl: A488 region autofluorescence | AID 591 | 0.1% of 59,000 active | compound autofluorescence, A488 spectral region, dye equivalency; active compounds read high | max dye equivalency, M; active = above 10 nM dye equivalent; inconclusive = 1 to 10 nM; inactive = 1 nM or less; about half of its hits are not listed in these tables;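 note: highest value over a series up to 38 µM; compound alone in buffer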
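Read-out: relative fluorescence at 480/540 nm, expressed as Alexa 488 dye-equivalent concentration from a six-point A488 standard included per plate. Conditions: 100 mM Tris, pH 8.0; 15 min incubation, room temperature.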
The depositor's hits bear a star; i = inactive; ? = inconclusive; . = not tested or not shown; [ ] = dose if it differs, or a comment.

SMILES | A647 fluor | AID923 | Resorufin fluor | TSHR ag | A488 autofl
O=C(O)c1[nH]c2ccccc2c1NS(=O)(=O)Cc1ccccc1 | 1e-09 | 0.0% | i | -4.3% | i
C=CCn1c(C(C)NC(=O)COC)nc2ccccc21 (stereo not given) | . | -0.1% | . | 1.9% | .
O=c1cnc2cnc(N3CCOCC3)nc2n1Cc1ccc(F)cc1 | 2.84e-08 | 15.3% | i | ? | i
O=C(CSc1nc2ncccc2[nH]1)Nc1ccc2c(c1)OCCO2 | 1e-09 | -0.2% | i | 0.3% | i
Cc1ccc(-c2noc(C3CCN(C(=O)Nc4ccc(C#N)cc4)CC3)n2)o1 | 1e-09 | -0.3% | i | 22.8% | i
CCOC(=O)Nc1c(O)ccc2oc(C)c(-c3ccccc3)c12 | . | -2.2% | . | 6.4% | .
CS[C@@H](CC(=O)O)C(=O)O | 4.41e-08 | 1.2%[11.5 µM] | i | -1.4%[11.4 µM] | i
CCC(Sc1nc(C)cc(=O)[nH]1)C(=O)Nc1nc2c(s1)CCCC2 (stereo not given) | 9.8e-09 | -1.2% | i | . | i
NC(=O)c1ncn([C@@H]2O[C@@H](CO)[C@@H](O)[C@H]2O)c1O | 1.2e-09 | -0.6% | i | ? | i
C(=N\n1cncn1)/c1ccc(N2CCOCC2)cc1 | 5.38e-08 | 5.6% | i | -7.0% | i
COc1ccc(S(=O)(=O)NCCSc2ccccc2)cc1OC | . | 0.9% | . | ? | .
CCCCC(C(=O)NCCC(C)C)N(CCCN1CCOCC1)C(=O)c1snc(C(N)=O)c1N (stereo not given) | 2e-09 | 4.1% | i | ? | i
Brc1cccc(-c2nnc3sc(CN4CCCCC4)cn23)c1 | 1e-09 | 2.6% | i | 10.6% | i
NC(=O)c1ccccc1OCC(=O)NS(=O)(=O)c1ccccc1 | 3.09e-08 | -2.3% | i | 5.2% | i
Cc1c(C(=O)NCc2ccco2)oc2ccc(S(=O)(=O)N3CCC4(CC3)OCCO4)cc12 | 1e-09 | 0.8% | i | 5.7%[11.4 µM] | i
COc1cc(CC(=O)Nc2ccc(S(=O)(=O)N(C)C)cc2)cc(OC)c1OC | 4.13e-08 | 0.1% | i | 3.6% | i
CCN(CC(=O)NC)S(=O)(=O)c1ccc(Br)cc1 | 3.99e-08 | 1.1% | i | -5.7% | i
CS(=O)(=O)N1CCN(C(=O)c2cc3ccccc3oc2=O)CC1 | . | -1.6% | . | -1.2% | .
CC(=O)NCCn1c(SCc2cc(=O)n3cc(Cl)ccc3n2)nc2ccccc2c1=O | 5.5e-09 | 0.1% | i | . | i
O=C(Cn1ncc2c(=O)oc3ccccc3c21)N1CCN(C(=O)c2ccco2)CC1 | 1e-09 | -0.4% | i | 1.7% | i
CCCC(C)n1[nH]c(=O)c2c(C)cc(C)nc21 (stereo not given) | 1.57e-08 | -3.9% | i | 9.4% | i
Cc1cccc2cc(CN(CCCO)C(=O)Nc3ccccc3Cl)c(=O)[nH]c12 | 1e-09 | -2.6% | i | 10.5% | i
O=C1NC(Nc2nccs2)(C(F)(F)F)C(=O)N1CCc1ccccc1 (stereo not given) | 3.79e-08 | -1.0% | i | 18.9% | i
COc1ccc(-n2c(C)nc3cc(C(=O)N4CCOCC4)ccc32)cc1 | 3.8e-08 | -0.9% | i | 12.1%[11.4 µM] | i
O=C(c1cnccn1)N1CCC2(CCCN(c3ccncc3)C2)CC1 | 2.68e-08 | 0.9% | i | 1.1% | i
O=C(CCCOc1ccc(Cl)cc1Cl)NCCCO | 2.05e-08 | -1.9% | i | -0.5% | i
COC(=O)c1ccccc1NC(=O)c1cc(OC)cc(OC)c1 | 1.8e-08 | 0.1% | i | ? | i
C#CCCCO/N=C1/C[C@@H](O)[C@@H](O)[C@@H]2[C@H]3C(=O)N(c4ccc(F)cc4F)C(=O)[C@@H]3CC[C@@H]12 | . | 0.1%[11.5 µM] | . | 9.8%[11.4 µM] | .
O=C(CN1CCC(n2nnc3cc(F)ccc32)CC1)NCCc1nc2ccccc2[nH]1 | 1.04e-08 | 0.9% | i | ? | i
Nc1cc(N)cc(-c2nc3ccccc3[nH]2)c1 | 1.16e-08 | 5.0% | i | -0.4% | i
CCN(CC)c1nc(N(CC)CC)[nH]c(=O)n1 | 2.51e-08 | -0.5% | i | 2.3% | i
Cc1oc2c(c1C(=O)NCc1ccccc1)CCCC2 | 3.2e-09 | -3.4% | i | ? | i
COc1cc(NS(=O)(=O)c2ccc3c(c2)oc(=O)n3C)cc(OC)c1OC | . | 1.5% | . | 5.7% | .
CCOC(=O)C1CCCN(C(=O)Cn2cccc2C(=O)c2ccccc2)C1 (stereo not given) | 4.7e-09 | 1.4% | i | -4.5%[11.4 µM] | i
CCCCN(CCCC)Cc1ccc(N)cc1 | 3e-08 | 0.0% | i | 14.0% | i
N[C@@H](Cc1c[nH]c2ccccc12)C(=O)O | 1.5e-09 | -1.8% | i | . | i
COc1ccc(N(CC(=O)Nc2cc(OC)ccc2OC)S(=O)(=O)c2c(C)nn(C)c2C)cc1 | . | 0.3% | . | -5.7% | .
O=C(c1ccccc1)c1ccc(C(=O)N2CCN(c3ccc(F)cc3)CC2)o1 | . | -0.4% | . | ? | .
O=C(Nc1ncc(C(F)(F)F)cc1Cl)C1COc2ccccc2O1 (stereo not given) | 7.04e-08 | -1.0% | i | 7.1% | i
Cc1nc2ccc(N)cc2s1 | . | -2.5% | . | 1.1% | .
Cn1c(SCCN2CCCCC2)nnc1-c1ccccc1Br | 9.6e-09 | 0.1% | i | 0.5% | i
O=C(NC1CCCC1)C(c1ccsc1)N(Cc1ccco1)C(=O)Cc1cccs1 (stereo not given) | 5.76e-08 | 3.3% | i | -22.6% | i
CCn1c(SCC(=O)c2ccc(F)cc2)nnc1-c1ccoc1C | 1.18e-08 | -0.7% | i | 5.0% | i
Cc1ccc(S(=O)(=O)N2CCN(Cc3ccccc3C(F)(F)F)CC2)cc1 | . | 1.1% | . | 9.9% | .
O=C(Nc1ccon1)c1cc2c(s1)CCCCCC2 | 1.47e-08 | -1.5% | i | ? | i

Whole records as entered above. Order of values: A647 fluor | AID923 | Resorufin fluor | TSHR ag | A488 autofl
COc1ccc(-n2c(C)nc3cc(C(=O)N4CCOCC4)ccc32)cc1 in the list: 3.8e-08 | -0.9% | i | 12.1%[11.4 µM] | i
O=C(CCCOc1ccc(Cl)cc1Cl)NCCCO in the list: 2.05e-08 | -1.9% | i | -0.5% | i
O=C(Nc1ccon1)c1cc2c(s1)CCCCCC2 in the list: 1.47e-08 | -1.5% | i | ? | i
O=C(CN1CCC(n2nnc3cc(F)ccc32)CC1)NCCc1nc2ccccc2[nH]1 in the list: 1.04e-08 | 0.9% | i | ? | i
Cc1nc2ccc(N)cc2s1 in the list: . | -2.5% | . | 1.1% | .

Additional results follow.
SMILES | A647 fluor | AID923 | Resorufin fluor | TSHR ag | A488 autofl
COc1ccc(-n2nnnc2SCC(=O)NCc2ccco2)cc1OC | 1e-09 | -0.4% | i | -0.4% | i
Cc1cc(NC(=O)CSc2nccn2-c2ccc(F)cc2)no1 | 1.14e-08 | 0.1% | i | -1.9% | i
Cc1ccccc1CSCC(=O)NC(=O)NCc1ccco1 | 1.03e-08 | 0.0% | i | -2.4% | i
CC(C)COc1ccc(-c2nnc(-c3ccncc3)o2)cc1 | 1e-09 | 0.2% | i | ? | i
COc1cccc(CNC(=O)CCn2c(=O)oc3ccccc32)c1 | 5.3e-09 | 0.2% | i | -5.5% | i
O=C(NC1CCCCC1)N1CCCc2ccccc21 | . | -2.0% | . | ? | .
O=C(O)CN(CCN(CC(=O)O)CC(=O)O)CC(=O)O.[Mn] | 1.6e-09 | -1.1%[11.5 µM] | i | 24.0%[11.4 µM] | i
COc1cc(OC)c(OC)cc1CN1CCN(c2ccccc2OC)CC1 | 1e-09 | -3.7% | i | 14.4% | i
C[C@H]1[C@H]2CC[C@H]3[C@@H]4CC=C5C[C@@H](N(C)C)CC[C@]5(C)[C@H]4CC[C@]23CN1C | . | 3.1% | . | ? | .
CCOC(=O)N1CCN(C(=O)CSCc2nc(-c3ccccc3F)oc2C)CC1 | 1.39e-08 | -1.0% | i | 2.8%[11.4 µM] | i
c1ccc2c(c1)[nH]c1c(N3CCC4(CC3)OCCO4)ncnc12 | 4.7e-08 | . | i | . | i
Cc1cc(NC(=O)C2C3C(=O)N(CCC(C)C)C(C(=O)NCc4ccccc4)C34C=CC2(C)O4)no1 (stereo not given) | 4.34e-08 | 2.5% | i | 0.0% | i
CNC(=O)C1CC(=O)N(Cc2ccc3c(c2)OCO3)C(=Nc2ccc(F)cc2)S1 (stereo not given) | 1e-09 | -3.2% | i | 13.9% | i
CCc1ccc(N2CC(C(=O)Nc3ccccc3F)CC2=O)cc1 (stereo not given) | . | -0.3% | . | 6.7% | .
COc1ccc2c(c1OC)C(=O)N(c1nccs1)C2 | 1e-09 | -0.5% | i | -0.6% | i
CC(=O)Nc1c(C(=O)C2CC2)oc2ccccc12 | 2.68e-08 | 0.3% | i | 10.4% | i
Cc1ccc(-n2c(SCC(=O)NCC3CCCO3)nc3n[nH]c(C)c3c2=N)cc1Cl (stereo not given) | 1e-09 | 0.4% | i | 7.3% | i
COc1ccc2c(CC(=O)OCC(=O)Nc3ccc4c(c3)OCO4)coc2c1 | 2.8e-09 | -0.5% | i | 12.3% | i
CN(C)CCCN1C(=O)C(O)=C(C(=O)c2cc3ccccc3o2)C1c1ccccn1 (stereo not given) | 2.9e-09 | . | i | . | i
C=CCSc1ncccc1C(=O)NCc1ccccc1 | 1.16e-08 | -1.2% | i | -5.4% | i
CC(C)(O)c1cc(=O)sc2nc3ccccc3n12 | 2.78e-08 | -1.3% | i | -6.0% | i
O=C(Nc1cccc2ccccc12)N1CCN(Cc2ccccc2)CC1 | . | -2.5% | . | 3.6% | .
CCn1nc(CC(=O)Nc2nnc(CC(=O)N3CCCCC3)s2)c2ccccc2c1=O | 1.86e-08 | -0.7% | i | ? | i
NNC(=O)c1ccc[n+](CCc2ccccc2)c1 | 5.64e-08 | 2.8%[11.5 µM] | i | -1.1%[11.4 µM] | i
Nc1nncn1C(=O)c1c(Cl)cccc1Cl | 1.18e-08 | 2.1% | i | . | i
CCOc1cc2[nH]c(=S)n(CCCN3CCN(C)CC3)c(=O)c2cc1OCC | 9.5e-09 | -0.4% | i | 4.1% | i
CCCOc1ccc(-c2nnn(CC(=O)c3ccc4c(c3)OCCO4)n2)cc1 | 2.12e-08 | -0.8% | i | 9.0% | i
COc1cccc(C(=O)Nc2ccc(NC(C)=O)cn2)c1 | 1e-09 | 0.5% | i | -4.8% | i
O=C(c1ccco1)N1CCN(c2ccc(Cl)c(Cl)c2)CC1 | 4.9e-08 | 0.5% | i | 15.3% | i
COc1ccccc1N1CCN(C[C@@H]2CN3C(=O)N(C)c4ccccc4C3=N2)CC1 | . | -0.8% | . | 6.7% | .
CCCCCCCCCCCCCCCC(=O)OC(CO)CO | . | -3.5% | . | 4.2% | .
CCCOc1ccc2oc(=O)c3c(c2c1)CCCN3C(=O)CN1CCN(C(=O)c2ccco2)CC1 | 1.7e-08 | 1.2% | i | 25.1% | i
COCCn1c(SCC(=O)Nc2cccc(OC)c2)nnc1-c1ccccc1 | 1.71e-08 | -4.4% | i | 17.7% | i
O=C(O)CSc1nnc(Cc2ccccc2)n1-c1ccccc1 | 2.32e-08 | -0.1% | i | 5.3% | i
Cc1ccc(C(=O)CCNc2ccc(F)c(Cl)c2)o1 | 1.5e-09 | 2.0% | i | -12.9% | i
Cc1nn(C(=O)c2ccco2)c(C)c1CN1C(=O)c2ccccc2C1=O | 3.8e-08 | 0.3% | i | 28.8% | i
CC(C)N(C(=O)C1CC(=O)OC12CCCCC2)C(C)C (stereo not given) | . | -2.3% | . | 6.8%[11.4 µM] | .

Only part of the results is shown; count on the stated rates, not on these rows.
